Screening data from PubChem BioAssay.
Six1-Eya2 blk – inhibitors of human Six1/Eya2 interaction; activity change, % (no concentration beside the values); AID 651725; AlphaScreen GST-Six1/His-Eya2 binding, biochemical; stronger effect = lower value; control for the full effect not named in the record; hit rate 0.56% among 360,000; Q15475+O00167; in the data active = activity change below about -65%; inconclusive = about -30% to -65%; inactive = above about -30%; note: % is set by controls: 0 for no effect and ±100 for the full control effect; compound concentration not given in the record
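Compounds are tested against tagged Six1 and Eya2 proteins bridged by glutathione donor and nickel acceptor beads; after a one-hour incubation at 37 °C without light, AlphaScreen emission is recorded.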
D2 potentiator – positive allosteric modulators of human D2 dopamine receptor | P14416 | AID 624464 | potentiation, % (test concentration not listed) | hit rate 0.23% among 360,000 | DiscoveRx D2 beta-arrestin cells, luminescence, 90 min; 100% = 57 uM dopamine signal; active = potentiation of 50% or more; inconclusive = 30% to 50%; inactive = 30% or less;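 note: compound concentration not given in the record; tested on top of an EC20 dose of dopamine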
Target sequence (P14416 whole entry, looked up): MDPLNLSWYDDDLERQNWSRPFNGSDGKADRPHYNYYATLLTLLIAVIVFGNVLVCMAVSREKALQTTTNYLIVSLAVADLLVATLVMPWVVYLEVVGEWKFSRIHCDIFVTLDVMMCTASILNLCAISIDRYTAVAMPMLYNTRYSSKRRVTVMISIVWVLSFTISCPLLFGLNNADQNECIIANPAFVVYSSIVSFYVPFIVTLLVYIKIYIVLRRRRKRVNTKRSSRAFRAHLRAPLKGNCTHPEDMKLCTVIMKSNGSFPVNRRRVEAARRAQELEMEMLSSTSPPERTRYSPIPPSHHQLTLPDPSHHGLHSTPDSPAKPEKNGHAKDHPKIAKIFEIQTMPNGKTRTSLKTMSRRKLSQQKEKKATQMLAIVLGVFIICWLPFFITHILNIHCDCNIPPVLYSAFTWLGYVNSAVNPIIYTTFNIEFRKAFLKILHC
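D2 cells co-treated with compound plus 50 nM dopamine (EC20) for 90 min at 37 deg C to detect potentiation. Beta-arrestin recruitment was read as enzyme-fragment luminescence after 1 h at ambient temperature. Full response was set by 57 uM dopamine.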
D2 ag – agonists of human D2 dopamine receptor (beta-arrestin); P14416; hit rate 0.084% among 360,000; DiscoveRx PathHunter D2 beta-arrestin, luminescence, 90 min; 100% = 57 uM dopamine signal; activation, % (no concentration beside the values); AID 624465; in the data active = activation above about 40%; inconclusive = about 15% to 40%; inactive = below about 15%; note: compound concentration not given in the record; the text of the record calls up to 30% inactive
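DiscoveRx PathHunter D2 beta-arrestin cells (2,100/well) attached overnight, then compound-stimulated 90 min at 37 C in HBSS/10 mM HEPES/0.1% Tween-20 buffer; beta-galactosidase complementation read by luminescence after 1 h at ambient temperature. Dopamine 57 uM final (EC100) as control.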
gsp agonist – activates gsp, the McCune-Albright syndrome mutation | hit rate 0.13% among 340,000 | Potency, µM (highest dose often 76.9 µM), for the others: at the top dose activation (cAMP increase), hits mostly activators | gsp mutant cells, cAMP HTRF, 30 min; control for the full effect not named in the record; active = well fitted activation curve with a large enough effect; inconclusive = small, poorly fitted or top-dose-only effect, or another doubt; inactive = no such curve, though single readings can be large or run the other way; cell line not stated here;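 note: phosphodiesterase inhibitor Ro 20-1724 added with compounds to block cAMP breakdown; potency is the fitted concentration of half-maximal effect; nearly all actives have a fitted effect of over 60% in size; about a fifth of the inactives were tested at one dose only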
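Cells in DMEM/10% FBS with G418 were pretreated with compounds in DMSO plus […] (300 uM stock) for 30 min at 37C. cAMP was measured by HTRF (cAMP-d2 plus anti-cAMP antibody-K) after 30 min at room temperature.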
gsp antagonist – antagonists of gsp mutant (McCune-Albright syndrome); gsp-mutant cells, cAMP HTRF, 30 min; control for the full effect not named in the record; Potency, µM (highest dose often 76.9 µM), for inactives: top-dose activity change, negative = inhibition, usual class: inhibitors; hit rate 0.4% among 340,000; AID 624288; active = falling curve of any shape with a large fitted effect; inconclusive = falling curve, mostly with a smaller effect; inactive = flat or rising curve; cell line not stated here;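 note: intracellular cAMP measured with PDE inhibitor Ro 20-1724 present during compound exposure; potency is the fitted concentration of half-maximal effect; % is set by controls: 0 for no effect and ±100 for the full control effect; nearly all actives have a fitted effect of over 65% in size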
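Cells in G418 medium, seeded 16-24 h, 37C; buffer exchange to DPBS + 1 mM CaCl2, 0.5 mM MgCl2, 0.05% BSA; cpds in DMSO + […] (300 uM stock), 30 min 37C; HTRF cAMP detection.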
CtBP-E1A inh – CtBP/E1A binding inhibition; AlphaScreen GST-E1A/His-CtBP binding, 1536-well; stronger effect = lower value; control for the full effect not named in the record; activity change, % (concentration not given with the values); hit rate 0.49% among 340,000; AID 651724; in the data active means activity change below about -65%; inconclusive means about -30% to -65%; inactive means above about -30%; note: % is set by controls: 0 for no effect and ±100 for the full control effect
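GST-E1A and His-tagged CtBP (125 nM each as 5X stock) were preincubated with pin-transferred compound for 2 h at 37 °C in the dark, then glutathione donor and nickel acceptor beads were added for 1 h before AlphaScreen reading.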
* marks the source's active call; other numbers are inactive results; ? = inconclusive; · = no result given; [ ] = dose if it differs, or a comment.

SMILES | Six1-Eya2 blk | D2 potentiator | D2 ag | gsp agonist | gsp antagonist | CtBP-E1A inh
O=C(Cn1cc(S(=O)(=O)Cc2ccccc2F)c2ccccc21)N1CCOCC1 | 2 | -6 | 6.8 | -41%[inhibitor] | -8% | 4
Cc1ccc2[nH]cc(CCCN3C(=O)c4ccccc4C3=O)c2c1 | -11 | -1 | -4.3 | 11% | -4% | -14
COc1ccc(CNc2ncnc3sccc23)cc1 | 0 | -3 | -1.7 | 37%[15.4 µM] | -7% | -10
CCCCc1cc(=O)oc2c(C)c(OCc3nn[nH]n3)ccc12 | -5 | -2 | -9.3 | 5%[15.4 µM] | -12% | -12
COc1ccc(NC(=O)COc2cc(C)cc(C)c2)cc1S(=O)(=O)N1CCCCC1 | -12 | -3 | -4.8 | 15%[15.4 µM] | -5% | -6
CN1CCN(c2ccc(NC(=S)NC(=O)c3cccc4c(Br)cccc34)cc2)CC1 | -10 | -33 | -0.5 | ? | 8% | -6
O=C(NCC1CCCO1)C1CCCN(S(=O)(=O)c2ccc(Cl)cc2)C1 (stereo not drawn) | 2 | -6 | -16 | 3%[15.4 µM] | 6% | 23
Cn1c(C(O)c2ccc(Cl)cc2)nc(Cl)c1Cl (stereo not drawn) | -10 | 1 | -0.2 | -1% | -10% | -2
Cc1ccc(NS(=O)(=O)c2ccccc2[N+](=O)[O-])cc1C | 3 | 0 | 2.8 | ? | 4% | 3
COc1ccccc1C(=O)COC(=O)CN1C(=O)C2CC=CCC2C1=O (stereo not drawn) | 2 | 7 | 2.4 | -1%[15.4 µM] | 7% | 3
C=CCNC(=O)c1cccc(NS(=O)(=O)c2ccc(Cl)cc2)c1 | 2 | -7 | -0.6 | -30% | 9% | -2
O=C(O)Cc1sc(Nc2ccc(F)cc2)nc1-c1cccs1 | 0 | -2 | -0.4 | -19% | -11% | 4
CCOc1ccc(N2CC(C(=O)NCc3nnnn3-c3ccc(C)c(C)c3)CC2=O)cc1 (stereo not drawn) | 9 | -3 | -2.1 | 21% | -6% | 2
CCN(CC(=O)Nc1ccc(NC(C)=O)cc1)CC(=O)Nc1ccc(Cl)c(Cl)c1 | 4 | -5 | 0.1 | -1%[15.4 µM] | -12% | 2
Cc1ccsc1/C=N/NC(=O)c1ccco1 | -6 | -3 | -1.4 | -12% | 8% | 1
CCOc1ccc(NC(=O)CSc2nnc(-c3ccco3)n2N)cc1 | 2 | -4 | -1.4 | -20% | 15% | 4
CC(C)NC(=O)N(C)C[C@H]1Oc2ccc(NC(=O)NC3CCCCC3)cc2C(=O)N([C@H](C)CO)C[C@@H]1C | 2 | -5 | 0.8 | · | 0% | -8
O=C1CCc2cc(S(=O)(=O)NCCC(=O)N3CCN(c4cccc(Cl)c4)CC3)ccc2N1 | -2 | -12 | -0.5 | 9% | ? | -11
Cc1nn(-c2ccccc2)c(C)c1/C=N/NC(=O)c1ccc(F)cc1 | 0 | -23 | -5.9 | ? | -16% | ·
CC(O)(c1cccnc1)c1nc(-c2cccc(C(F)(F)F)c2)cs1 (stereo not drawn) | -2 | -9 | -4.5 | · | · | 3

Compounds above that have an NH in an aromatic ring (two):
SMILES | Six1-Eya2 blk | D2 potentiator | D2 ag | gsp agonist | gsp antagonist | CtBP-E1A inh
Cc1ccc2[nH]cc(CCCN3C(=O)c4ccccc4C3=O)c2c1 | -11 | -1 | -4.3 | 11% | -4% | -14
CCCCc1cc(=O)oc2c(C)c(OCc3nn[nH]n3)ccc12 | -5 | -2 | -9.3 | 5%[15.4 µM] | -12% | -12

(next part)
SMILES | Six1-Eya2 blk | D2 potentiator | D2 ag | gsp agonist | gsp antagonist | CtBP-E1A inh
O=C(Nc1nnc(CSCc2ccc(F)cc2)s1)c1cccc([N+](=O)[O-])c1 | 6 | -3 | -1.6 | 21% | -15% | -1
C=CCNc1nc(C(F)(F)F)nc2c1nnn2Cc1ccccc1Cl | 1 | 2 | -0.6 | -15% | 1% | 4
O=C(CNC(=O)c1ccc(Cl)cc1)NNC(=O)c1ccc(Br)cc1 | 6 | 8 | -3.4 | -9% | -2% | 3
C[C@H](CO)N1C[C@H](C)[C@@H](CN(C)CC2CCCCC2)Oc2c(NS(=O)(=O)c3ccccc3)cccc2C1=O | -3 | -4 | -1.6 | · | -4% | -19
CCn1c(SCC(=O)NC2CCCc3ccccc32)nnc1-c1ccncc1 (stereo not drawn) | 6 | -5 | 0.9 | 18% | -8% | 9
O=C1C2C(C(=O)N1Cc1ccco1)C1C=CC2C12CC2 (stereo not drawn) | -1 | -3 | -1.1 | ? | 14% | -5
CCOC(=O)Nc1ccc2c(CN3CCN(S(=O)(=O)c4ccccc4F)CC3)cc(=O)oc2c1 | -14 | -8 | -0.3 | -9% | -2% | 3
O=C(COC(=O)c1ccccc1[N+](=O)[O-])NC(=O)c1ccccc1 | -3 | -9 | -6.3 | ? | -5% | 2
COc1ccc(-n2cc(C(=O)Nc3cc([N+](=O)[O-])ccc3OC)c3ccccc3c2=O)cc1 | 0 | -17 | -0.7 | -5% | 1% | -8
COc1cccc(NC(=O)CC(C)=O)c1 | 5 | -4 | -1.3 | 1% | 6% | -9
CC(=O)Nc1ccc(-c2ccnc3c2CC(C)(C(=O)NCCC(F)(F)F)O3)cc1 (stereo not drawn) | 0 | 2 | -4.3 | · | · | 3
Cc1ccccc1N1CC(C(=O)Nc2nnc(SCC(=O)Nc3nccs3)s2)CC1=O (stereo not drawn) | -3 | -10 | -1.1 | 5% | 2% | -2
CCC(CC)NC(=O)c1ccc2c(c1)OCCO2 | -3 | -5 | -0.1 | -23% | 8% | 1
CC(=O)N1CCc2cc(Br)cc(S(=O)(=O)NCCCN(C)Cc3ccccc3)c21 | 0 | -12 | -0.9 | -4%[15.4 µM] | -5% | 0
CCn1c(SCC(=O)Nc2cccc(F)c2)nnc1-c1cc2cc(Br)ccc2o1 | 11 | -7 | 0.9 | ? | -6% | 4
COc1ccc(C(=O)Nc2ccccc2C(=O)NCc2ccco2)cc1 | -7 | -3 | 1.2 | ? | -7% | -14
COCC(=O)Nc1ccc(C(N)=O)cc1 | 0 | -13 | 0.5 | -36%[inhibitor] | 4% | -8
CC(C)(C)n1nc2c(c1NC(=O)Cc1ccccc1)CS(=O)(=O)C2 | 15 | -3 | -2.3 | -3%[15.4 µM] | 1% | -14
Cn1ncc(C(=O)Nc2ccc(Cl)cc2)c1C(F)(F)F | 5 | -11 | -4.0 | -2%[15.4 µM] | 2% | 8
C=CCc1ccccc1OCCCCN1CCCC1 | -3 | -40 | -2.4 | 11% | 5% | -3
O=C(NCc1csc2ccccc12)Nc1cc(Cl)cc(Cl)c1 | 7 | -6 | 1.2 | -22%[15.4 µM] | ? | 1
CCOc1ccc2[nH]c3c(NCC(C)C)ncnc3c2c1 | -6 | 5 | -13 | 22% | -17% | -1
O=C(NCC1([N+](=O)[O-])CN(C(=O)c2ccccc2)CN(C(=O)c2ccccc2)C1)c1ccccc1 | 12 | 1 | -4.2 | 10%[15.4 µM] | -25% | 12
O=[N+]([O-])c1ccc(O)c2cccnc12 | -10 | -10 | 1.7 | 21% | -5% | -6
CN(C)c1ccc(/C=N/Nc2ccc(-n3ccnc3)nn2)cc1 | 0 | -6 | 1.0 | 1% | -14% | -8
CCOCCCN1C(=O)CN(C2CCCCC2)C(=O)C1c1ccc(OCC)c(OC)c1 (stereo not drawn) | 0 | -7 | -3.9 | -5% | 4% | 3
Cc1ccc(C(O)(COC(=O)C(C)C)COC(=O)C(C)C)c(O)c1 | 1 | -1 | -1.0 | -9% | 8% | 8
O=C(NCc1ccccc1)N1CCN(CCO)CC1 | 0 | -1 | -1.1 | -33%[inhibitor] | -1% | 5
Cc1ccccc1OCc1nnc(SCC(=O)N2c3ccccc3Sc3ccc(Cl)cc32)o1 | -1 | -13 | -0.4 | -35%[inhibitor] | -17% | 4
CN(C)CCCN1c2ccc(O)cc2Sc2ccc(Cl)cc21 | ? | -18 | 1.2 | ? | · | -13
CCOC(=O)C=C(C(=O)OCC)C(=O)OCC | 23 | -6 | 3.0 | 3% | -13% | 0
CCN(C(=O)CN1C(=O)NC2(CCc3ccccc32)C1=O)C1CCCCC1 (stereo not drawn) | 0 | -14 | -2.4 | 0% | 12% | 4
COc1ccc(-c2cc(C(=O)Nc3ccccc3N3CCOCC3)c3ccccc3n2)cc1OC | -10 | 25 | 8.5 | 18% | -3% | 0
COC(=O)C1=C(CN2CCN(C)CC2)NC(=O)NC1c1cc(C)ccc1C (stereo not drawn) | 6 | -6 | 0.6 | -14% | -10% | 2
CCOc1cc(Cl)c(S(=O)(=O)NCc2cccnc2)cc1Cl | 1 | 1 | 6.0 | -3%[15.4 µM] | 2% | 1
CCOC(=O)c1cnc(SCc2nc(N)nc(Nc3ccc(F)cc3)n2)nc1N | -2 | 13 | 3.5 | -6% | 0% | 1
CCC(C)c1ccc(NC(=O)C2CCN(c3ncccn3)CC2)cc1 (stereo not drawn) | 25 | -2 | -1.5 | 0% | -11% | 50
NC(=O)C1(N2CCCCC2)CCN(C2CC(=O)N(Cc3ccc(N4CCCC4=O)cc3)C2=O)CC1 (stereo not drawn) | 6 | -13 | -2.9 | -35%[inhibitor] | 5% | 5
Cc1c(C(Nc2ccccn2)c2ccccc2)c(=O)n(-c2ccccc2)n1C (stereo not drawn) | 13 | 0 | 3.9 | 25% | -2% | -1
COC(=O)c1cn(Cc2cccnc2)c(=O)c2ccccc12 | -2 | -4 | 9.3 | 14%[15.4 µM] | 3% | ·
CC(=O)c1ccccc1OCCCCN1CCCCC1 | 5 | -5 | -5.4 | 2% | 10% | 4
CCCC1CC(C(=O)Nc2ccccc2)C(=O)O1 (stereo not drawn) | 9 | -5 | 2.5 | 28%[15.4 µM] | -3% | -14
O=C(CCN1C(=O)c2ccccc2C1=O)NCCCn1ccnc1 | -21 | -1 | -6.0 | ? | 5% | ·
Cc1ccccc1N1CCN(Cc2ccc(Br)o2)CC1 | 9 | -18 | 0.1 | 10%[15.4 µM] | 4% | 1
CCCCc1ccc(CC2S/C(=C(\C#N)C(=O)N3CCOCC3)N(c3ccccc3)C2=O)cc1 (stereo not drawn) | -3 | 19 | 0.3 | 2% | 2% | 0
COc1cc(CCC(=O)OCc2nnc(-c3ccccc3)o2)cc(OC)c1OC | -2 | 1 | -0.3 | -64%[inhibitor] | -12% | -5
COc1cc(CC(=O)Nc2ncc(C)s2)cc(OC)c1OC | 15 | -10 | -4.5 | 0% | 11% | 27

Reprinted at random: 2 records from the list, in no set order.
SMILES | Six1-Eya2 blk | D2 potentiator | D2 ag | gsp agonist | gsp antagonist | CtBP-E1A inh
CCOc1ccc(NC(=O)CSc2nnc(-c3ccco3)n2N)cc1 | 2 | -4 | -1.4 | -20% | 15% | 4
COc1cc(CCC(=O)OCc2nnc(-c3ccccc3)o2)cc(OC)c1OC | -2 | 1 | -0.3 | -64%[inhibitor] | -12% | -5
